Compound activity: PubChem, Center for Chemical Genomics, University of Michigan
TAR Tat displ = HIV-1 TAR-Tat binding disruption; 100,000 compounds, 0.6% hits; AID 1259389; HIV-1 TAR RNA, Tat peptide displacement FRET; active compounds read high; z-score (concentration not given with the values);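 further: score is relative to mean and SD of negative controls; some compounds called inactive have numbers as strong as hits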
CDC25B-CDK2 inh = human CDC25B-CDK2/CyclinA binding inhibition; HTRF CDC25B-CDK2/CyclinA binding, anti-His/anti-Flag; active compounds read high; AID 1259370; 94,000 compounds, 0.72% hits; z-score (concentration not given with the values);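 further: score is relative to mean and SD of negative controls; strong numbers were not always called active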
An asterisk follows results filed as active; x = not tested or not shown.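 How the source made its calls: active means z-score from 3 up in half or more of its runs; inactive means the rest.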 Outcome played no part in choosing rows; any-hit rate near 0.87%.

SMILES | TAR Tat displ | CDC25B-CDK2 inh
Cc1sc2c(c1C)c(=O)n(-c1ccccc1)c1nnc(SC(C)C)n21 | x | 2.1
Cc1ccc(S(=O)(=O)/N=C(\N)Nc2nc(C)cs2)cc1 | x | 0.78
Cc1nc(-c2ccc(C)c(S(=O)(=O)Nc3ccc(F)cc3)c2)cs1 | 1.9 | x
CCOc1cccc(C2c3c(oc4ccccc4c3=O)C(=O)N2c2ccc(C)cn2)c1 (stereo not drawn) | 0.3 | 0
O=C(Cn1ncc2c([nH]c3ccccc32)c1=O)NC1CCCc2ccccc21 (stereo not drawn) | 0.42 | x
COc1ccc(-c2coc3c(OC)c(OC)cc(OC)c3c2=O)cc1 | 2.4 | x
CCCCOc1cccc(C2c3c(oc4ccccc4c3=O)C(=O)N2c2nccs2)c1 (stereo not drawn) | 2.5 | 0.14
Cc1nc2nc[nH]n2c(=O)c1NS(=O)(=O)c1ccc2c(c1)n(C)c(=O)n2C | x | -2.1
CCC(C(=O)N1CCN(C(=O)c2ccco2)CC1)n1c(C)c2cnn(-c3ccccc3)c(=O)c2c1C (stereo not drawn) | 0.74 | -1
O=C(Nc1ccc2c(c1)OCO2)c1cnn(-c2cccc(F)c2)c1-n1cccc1 | 0.79 | x
O=C(Nc1ccc(OCc2ccccc2)cc1)OCCn1ncc2ccccc2c1=O | x | -2.8
Cc1nnc2c3ccccc3nc(Nc3ccc(Cl)cc3)n12 | -0.27 | x
CCN(CC)CCNC(=O)c1nn(C)c2c1CSc1ccccc1-2 | 2 | -2.1
COc1ccc(C2CC(=O)N3CN(C4CCCC4)CSC3=C2C#N)cc1 (stereo not drawn) | 0.43 | 5.5*
CCOC(=O)C1CCC(CNC(=O)N2CC(CC)Oc3ccccc32)CC1 (stereo not drawn) | 1.4 | x
Cc1ccc(/C(O)=C2\C(=O)C(=O)N(CCCC(=O)O)C2c2ccc(C(C)C)cc2)cc1 (stereo not drawn) | 0.1 | -0.84
Cc1cc(C)c2c(-n3cccc3)c(C(=O)N3CCN(C(=O)c4ccco4)CC3)sc2n1 | -0.62 | -1.4
CCN(CC)S(=O)(=O)c1ccc(N)cc1 | 1.3 | x
CCOC(=O)c1sc2nc(C)nc(Nc3ccccc3)c2c1C | x | -1.3
O=C(NC1CCCC1)C1CCCN(c2nc3ccccc3n3cccc23)C1 (stereo not drawn) | 2.4 | x
CCOc1ccccc1N1CCN(C(=O)c2cc(-c3ccccc3)nc3ccccc23)CC1 | x | -3.9
CCCc1nc2sc3c(SCC(=O)OC)ncnc3c2c2c1COC(C)(C)C2 | -2.1 | 0.08
COCCCNS(=O)(=O)c1ccc(CN2C(=O)c3cccnc3C2=O)cc1 | -0.66 | x
N#Cc1nc(-c2ccccc2)oc1NCCN1CCCCC1 | 0.48 | -0.63
NC(=O)CSc1ccc(-c2cccs2)nn1 | 1.9 | x
Cc1ccc(/C(O)=C2/C(=O)C(=O)N(CCN(C)C)C23C(=O)N(C)c2ccccc23)cc1F (stereo not drawn) | 0.76 | -0.46
COc1cc(NC2c3ncccc3C(=O)N2Cc2cccs2)cc(OC)c1 (stereo not drawn) | 1.2 | -3
CCCN1C(=O)c2n[nH]c(C)c2C1c1cccnc1 (stereo not drawn) | 0.27 | -0.2
CCCc1n(CC(O)COc2ccc(C)cc2)c2ccccc2[n+]1C (stereo not drawn) | -0.02 | 0.07
Cc1cccc(NS(=O)(=O)c2ccc(N)c(S(N)(=O)=O)c2)c1 | -6.6 | -0.97
COC(=O)c1sccc1S(=O)(=O)Nc1ccc2c(c1)OCCO2 | 0.04 | x
c1ccc(Nc2c(-c3ccccc3)nc3nc[nH]n23)cc1 | 0.48 | -0.99
CN(C)/C=N/c1nnc(SCC(=O)Nc2cc(Cl)cc(Cl)c2)s1 | x | -1.4
CSc1nc2cc(C)nn2c(-c2ccco2)c1C#N | x | -1.4
COc1cccc(OCCn2c(CN3CCOCC3)nc3ccccc32)c1 | 1 | -1.1
Cc1c(NC(=O)Nc2ccc(Br)cn2)sc2nc3n(c(=O)c12)CCC(C)CC3 (stereo not drawn) | 0.65 | 6.1

Shown with tabs: entries from further up.
canonical_smiles	TAR Tat displ	CDC25B-CDK2 inh
COc1cc(NC2c3ncccc3C(=O)N2Cc2cccs2)cc(OC)c1 (stereo not drawn)	1.2	-3
CCCN1C(=O)c2n[nH]c(C)c2C1c1cccnc1 (stereo not drawn)	0.27	-0.2
CCCc1n(CC(O)COc2ccc(C)cc2)c2ccccc2[n+]1C (stereo not drawn)	-0.02	0.07
Cc1cccc(NS(=O)(=O)c2ccc(N)c(S(N)(=O)=O)c2)c1	-6.6	-0.97
COC(=O)c1sccc1S(=O)(=O)Nc1ccc2c(c1)OCCO2	0.04	x
c1ccc(Nc2c(-c3ccccc3)nc3nc[nH]n23)cc1	0.48	-0.99
CN(C)/C=N/c1nnc(SCC(=O)Nc2cc(Cl)cc(Cl)c2)s1	x	-1.4

The list continues.
SMILES | TAR Tat displ | CDC25B-CDK2 inh
CCN1C(=O)C(C(=O)c2ccc(OC)cc2)SC1=S (stereo not drawn) | -1.4 | -0.97
COC(=O)C1=C(C)NC(=O)N(C(C)=O)C1c1ccc(Cl)cc1 (stereo not drawn) | x | -1
CC1=C(C(=O)OC(C)C)C(c2ccncc2)C2=C(CC(c3ccccc3)CC2=O)N1 (stereo not drawn) | 1.5 | -1.1
COc1ccc(C(=O)COc2ncnc3cc(Cl)ccc23)cc1 | x | -1.9
COc1cc(OC)c(NC(=O)CSc2nncn3c2cc2oc(C)cc23)cc1Cl | 1.7 | x
Cc1c(C(=O)NCc2ccco2)cc(-c2ccccc2)n1CCCN1CCOCC1 | x | -2.3
CSc1cccc(NS(=O)(=O)c2ccc3c(c2)C(C)(C)C(=O)N3C)c1 | 0.05 | x
Fc1ccccc1Nc1ncnc2c1cnn2-c1ccccc1 | -0.28 | x
COc1cn(CC(=O)Nc2ccc3c(c2)OCCO3)c(CSc2nc(C)cc(C)n2)cc1=O | 1.2 | x
CC1CC(C)CN(C(=O)CSc2nnc(-c3ccco3)o2)C1 (stereo not drawn) | 3 | -2.2
Cc1ccc(C(C)C)c(OCCCN2C(=O)C(=O)c3cc(C)ccc32)c1 | 2.6 | -0.06
Cc1ccc(NC(=O)Nc2nnc(CC(=O)Nc3ccccc3)s2)cc1 | x | 0.1

Single records, from the list above. Order of values: TAR Tat displ	CDC25B-CDK2 inh
`CCN1C(=O)C(C(=O)c2ccc(OC)cc2)SC1=S` (stereo not drawn) reads -1.4	-0.97
`COc1cc(OC)c(NC(=O)CSc2nncn3c2cc2oc(C)cc23)cc1Cl` reads 1.7	x
`Cc1c(C(=O)NCc2ccco2)cc(-c2ccccc2)n1CCCN1CCOCC1` reads x	-2.3

Next section.
SMILES | TAR Tat displ | CDC25B-CDK2 inh
Cn1c(=O)c(=O)n(C)c2cc(S(=O)(=O)N3CCCC3c3ccc(F)cc3)ccc21 (stereo not drawn) | 0.75 | -1.6
CC(C)(C)S(=O)(=O)/C(C#N)=C/c1cc2ccccc2o1 | x | -1.6
CCOC(=O)Cn1c(C2CC(=O)N(c3ccccc3F)C2)nc2ccccc21 (stereo not drawn) | 1.1 | 0.84
CCCOC(=O)c1ccc(N2C(=O)c3sc4nc(C)cc(COC)c4c3NC2C)cc1 (stereo not drawn) | 1.2 | -1.3
CCC(C)C(NS(=O)(=O)c1cccc2nsnc12)C(=O)O (stereo not drawn) | 1.8 | -0.48
CCCCSc1nnc2c(n1)OC(c1ccc(Br)o1)Nc1ccccc1-2 (stereo not drawn) | x | -2.5
Cc1nn(C(C)C(=O)N2CC(C)CC(C)C2)c(=O)c2c1sc1ccccc12 (stereo not drawn) | 2.1 | -1.9
Cn1c(=O)c2c(-c3ccccc3Cl)n(Cc3ccc(Cl)cc3)cc2n(C)c1=O | -0.91 | -1.2
O=C(Nc1ccc2nc3n(c(=O)c2c1)CCCC3)c1cc(-c2ccco2)nc2ccccc12 | 0.76 | 0.76
Cc1ccc(S(=O)(=O)NC(C)c2nc(-c3ccc4c(c3)[nH]c(=O)n4C3CCCC3)no2)cc1 (stereo not drawn) | 0.43 | x
Cc1cn2c(=O)cc(COc3ccccc3)nc2s1 | 1.6 | -1.9
N[C@H](CSCc1ccccc1)C(=O)Nc1ccc([N+](=O)[O-])cc1 | x | -1.9
CCCc1nn2c(=O)cc(COC(=O)COc3ccc(F)cc3)nc2s1 | 0.31 | x
O=C(Nc1cccnc1Sc1nc2cccnc2s1)c1ccc(F)cc1 | x | -1.7
CCOC(=O)C(CO)Nc1ncnc2onc(C)c12 (stereo not drawn) | -0.02 | x
COCCn1c(SCC(=O)Nc2ccc3c(c2)OCO3)nc2c(c1=O)SC(C)C2 (stereo not drawn) | 2.3 | -1.6
CC1=C(C(=O)OCC2CCCO2)C(c2ccc3c(c2)OCO3)NC(=O)N1 (stereo not drawn) | x | -2.6
Cc1nc(N2CCN(c3ccccn3)CC2)nc2c1C(=O)CC(/C=C/c1ccccc1)C2 (stereo not drawn) | 2.1 | -2.1
CC(O)(c1ccc(Br)cc1)C(CN1CCCCC1)c1ccccc1 (stereo not drawn) | 2.1 | -0.95
CC(C(=O)Nc1ccc(F)cc1)n1nnc2sc3c(c2c1=O)CCCC3 (stereo not drawn) | 1.5 | 0.09
CCNC(=O)N1c2ccc(C)cc2C(C)=CC1(C)C | -0.97 | -0.94
Cc1ccc(C(=O)NCCC2=CCCCC2)cc1NC1=NC2CS(=O)(=O)CC2S1 (stereo not drawn) | -0.53 | -0.36
Cn1cc(C(/C=C/c2ccc([N+](=O)[O-])o2)c2cn(C)c3ccccc23)c2ccccc21 | -7.7 | -1.6
COc1ccc(OCC2CN=C(Nc3ccc(C)cc3)S2)cc1 (stereo not drawn) | x | -2
COC(=O)c1sccc1S(=O)(=O)Nc1cc(OC)cc(OC)c1 | -0.68 | x
O=C(O)C1CCCN1C(=O)OCc1ccccc1 (stereo not drawn) | -1.3 | -1.3
O=C(Nc1c(F)cc(F)cc1Br)c1cnn(-c2ccccc2)c1-n1cccc1 | 0.79 | x
Cc1ccc(-c2nc3cc(N)ccc3o2)cc1 | -0.42 | -2.2
Cc1cc(C)n(-c2nc3c(c(=O)n(C)c(=O)n3C)n2Cc2ccc(Cl)cc2Cl)n1 | x | -1.7
CCn1c(C(=O)N2CCC(C(=O)NC3CCC(C)CC3)CC2)cc2occc21 (stereo not drawn) | 1.2 | -0.89
CCOC(=O)c1c(C)oc2cc(S(=O)(=O)Nc3c(C)ccc4nsnc34)ccc12 | 0.59 | -3.2
COCCc1nn2c(=O)cc(COC(=O)c3ccc4c(c3)OCO4)nc2s1 | 0.45 | x
O=C(Nc1cccnc1)c1cc2nc3c(c(C(F)(F)F)n2n1)CCc1ccccc1-3 | x | 0.66
CCOc1ccc(S(=O)(=O)Nc2ccc3oc4c(c3c2)CCC(C)C4)cc1 (stereo not drawn) | x | 0.76
Cc1cc(-c2ccc(S(=O)(=O)NCCN3CCOCC3)s2)on1 | 0.95 | x
CCc1ccc(S(=O)(=O)Nc2ccc3oc4c(c3c2)CCCC4)cc1 | 0.15 | 0.6
CC1CCN(c2nc3c(c(=O)[nH]2)CCN(Cc2ccccc2)C3)CC1 | 0.23 | -2.3
Cn1c(=O)c2nc(-c3ccccc3Br)oc2c2ccccc21 | x | -3.8
O=C(Cc1cccs1)N1c2ccccc2Sc2ccccc21 | 0.12 | 0.84
Cc1cc(C)nc(SCC(=O)N/N=C/c2cc([N+](=O)[O-])ccc2O)n1 | x | -1.1
CCc1ccc(CNCc2ccc3c(c2)OCO3)cc1 | 2 | 1.2
CC1CCN(C(=O)CSc2ncnc3c2sc2ccccc23)CC1 | x | -6.4
CCn1c(CN2CCN(c3ccc(F)cc3)CC2)nc2c1c(=O)n(C)c(=O)n2C | 0.94 | -0.53
CCOC(=O)CCc1c(C)nc2c(c(C)nn2C(C)(C)C)c1C | 1.1 | -0.37
Cc1cccc(-c2noc(-c3cccnc3NC3CCCCC3)n2)c1 | 0.12 | -1.3
Cn1c(=O)c2cc(C(=O)N3CCC4(CC3)OCCO4)sc2c2ccccc21 | x | -0.87
O=C(Oc1ccc2ccc(=O)oc2c1)c1ccccc1Cl | x | -2
CSc1cccc(NC(=O)c2c3c(nc4ccccc24)C(=O)N(C2CCCCC2)C3)c1 | 1.3 | x
Cc1cc(NC(=O)CCOc2ccc(F)cc2)no1 | x | -0.99
Cc1cc(N2C(=O)c3nccnc3C2=O)ccc1Br | 1.8 | -1.1
O=C1N(c2ccc(F)cc2)C2CS(=O)(=O)CC2N1c1cccc(Cl)c1 (stereo not drawn) | 1 | -1.5
Cc1cn2c(=O)cc(CSc3nnc(NC(=O)C(C)C)s3)nc2s1 | 0.47 | x
CC(C)Cc1nnc(NC(=O)Nc2ccc(Cl)c(Cl)c2)s1 | x | -5.1
CCc1c(C)nc2ncnn2c1Nc1ccc(C)c(F)c1 | 0.56 | -1.1
CCC1(CC)Cc2ccccc2C(NC(=O)Nc2ccccc2)=C1C#N | 1.1 | 0.99
CCCCc1nc2c(=O)[nH]c3ccccc3c2o1 | 1.3 | -0.66
Cn1ncc2nnn(-c3ccccc3)c(=O)c21 | 1.2 | 0.95
O=C(Nc1cccs1)N1CCN(c2ncccn2)CC1 | x | -0.16
NC(=O)c1c(N)sc2c1CCC2 | x | -1.6
COc1ccccc1NC(=O)Nc1nnc(COc2ccccc2F)s1 | 2.2 | -0.91

By substructure: the compounds so far with a cyano group (five)
SMILES | TAR Tat displ | CDC25B-CDK2 inh
COc1ccc(C2CC(=O)N3CN(C4CCCC4)CSC3=C2C#N)cc1 (stereo not drawn) | 0.43 | 5.5*
N#Cc1nc(-c2ccccc2)oc1NCCN1CCCCC1 | 0.48 | -0.63
CSc1nc2cc(C)nn2c(-c2ccco2)c1C#N | x | -1.4
CC(C)(C)S(=O)(=O)/C(C#N)=C/c1cc2ccccc2o1 | x | -1.6
CCC1(CC)Cc2ccccc2C(NC(=O)Nc2ccccc2)=C1C#N | 1.1 | 0.99
